# Source: PubChem BioAssay (National Center for Advancing Translational Sciences (NCATS))
# VDR inhibitor = blocks the human vitamin D receptor; P11473; VDR-SRC2-3 peptide fluorescence polarization, 2 h; Potency, µM, without a hit: max response, negative = inhibition, actives largely listed as inhibitors; 400,000 compounds, 0.93% hits; AID 504847; active means well fitted inhibition curve with a large enough effect; inconclusive means small, poorly fitted or top-dose-only effect, or another doubt; inactive means no such curve, though single readings can be large or run the other way; further: series mostly up to about 120 µM
# Target sequence (P11473 whole entry, looked up): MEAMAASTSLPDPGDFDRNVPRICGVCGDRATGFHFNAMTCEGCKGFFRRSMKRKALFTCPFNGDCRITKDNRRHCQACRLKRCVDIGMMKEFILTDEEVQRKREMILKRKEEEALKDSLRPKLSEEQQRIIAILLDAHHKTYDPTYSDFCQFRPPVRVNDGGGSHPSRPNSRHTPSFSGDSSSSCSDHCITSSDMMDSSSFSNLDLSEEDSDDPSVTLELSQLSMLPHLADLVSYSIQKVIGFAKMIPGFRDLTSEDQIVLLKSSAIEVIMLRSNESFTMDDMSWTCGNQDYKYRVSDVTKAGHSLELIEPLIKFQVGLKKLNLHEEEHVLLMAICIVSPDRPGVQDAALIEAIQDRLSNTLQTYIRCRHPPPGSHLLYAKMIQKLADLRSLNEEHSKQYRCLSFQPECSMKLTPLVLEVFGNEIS
#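 Fluorescence polarization assay measuring small-molecule disruption of VDR binding to the coregulator peptide SRC2-3. Compounds were pin-transferred (23 nl) into the reagent mix and incubated 2 h at room temperature before reading.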
# Starred values were filed as active, the others as inactive; ? = inconclusive; & = joins results of further samples; [ ] = remark or other dose. On the % scale 0 is the no-effect control and ±100 the full control effect; potency means the concentration at half of the fitted maximal effect. The list is partial; rates above refer to the full screens.
# The first 3 entries, ahead of the listing:
no.	smiles	VDR inhibitor
1	COc1ccccc1N1CCN(C(=O)Cn2cnc3onc(-c4ccc(F)cc4)c3c2=O)CC1	-1.1%
2	COc1ccccc1CNC(=O)[C@@H]1CCCN1S(=O)(=O)c1ccccc1F	0.9%
3	O=C(c1cccc(F)c1)N1CCC2(CCN(Cc3cc(C(F)(F)F)cc(C(F)(F)F)c3)CC2)CC1	-7.5%

# Results, from the first entry:
no.	smiles	VDR inhibitor
1	COc1ccccc1N1CCN(C(=O)Cn2cnc3onc(-c4ccc(F)cc4)c3c2=O)CC1	-1.1%
2	COc1ccccc1CNC(=O)[C@@H]1CCCN1S(=O)(=O)c1ccccc1F	0.9%
3	O=C(c1cccc(F)c1)N1CCC2(CCN(Cc3cc(C(F)(F)F)cc(C(F)(F)F)c3)CC2)CC1	-7.5%
4	C=CCN=C(NC#N)SCC(=O)NC(C)(C)C	-0.7%
5	O=C(N/N=C/c1cc(Br)ccc1O)c1cccc(N2CCCC2=O)c1	-3.5%
6	Cc1ccc(CSCCNC(=O)CN(c2cc(C)ccc2C)S(C)(=O)=O)cc1	14.7%
7	O=c1cc(N2CCCC2)[nH]c(=O)n1-c1ccc(Cl)cc1	-9.1%
8	O=C(O)C(Oc1ccc2c3c(c(=O)oc2c1)CCC3)c1ccccc1 (stereo not given)	13.3%
9	COc1ccc(N(CC(=O)N/N=C/c2ccc3c(c2)OCO3)S(=O)(=O)c2ccc(NC(C)=O)cc2)cc1	-25.7%
10	NC(=O)c1cc2ccccc2o/c1=N\NC(=O)c1ccco1	2.4%
11	COc1ccc(C)cc1C1=CC(=O)C[C@H](c2ccc(F)cc2)C1	-12.9%
12	COc1cc(C)ccc1OCCCCNCc1ccccc1	-12.8%
13	COc1ccc(N2CCN(/C(=N\S(=O)(=O)c3ccc(C)cc3)Nc3nc(C)cc(C)n3)CC2)cc1	22.5%
14	CCc1ccc(C(=O)NC(=S)Nc2ccc(N3CCOCC3)cc2)cc1	-33.6%
15	O=C(CN1C(=O)NC2(CCCc3ccccc32)C1=O)N1CCN(c2cccc(C(F)(F)F)c2)CC1 (stereo not given)	-9.4%
16	COc1ccc(/C=N/NC(=O)c2ccc(F)cc2)cc1CN1CCc2cc(OC)c(OC)cc2C1C (stereo not given)	5.8%
17	CCC(=O)Nc1cc2c3c(c1)CCN3C(=O)CC2	3.4%
18	S=C(NCc1ccc(Cl)cc1)Nc1ccccc1	-4.7%
19	COc1cccc(/C=C/C(=O)OCC(=O)N2CCN(S(=O)(=O)c3ccc(Cl)cc3)CC2)c1	11.2%
20	CCn1c(N)c(C(N)=O)sc1=S	6.9%
21	Cc1ccc(CSc2ncnc3ccccc23)cc1	17.8%
22	COc1ccc(CN2CC(C(=O)NCCCN3CCCCCC3)CC2=O)cc1 (stereo not given)	6.1%
23	CCOC(=O)N1CCN(C(=O)Cc2c(C(=O)O)n(C)c3ccccc23)CC1	-6.2%
24	CCOC(=O)Cn1c(=O)cnc2ccccc21	1.2%
25	CCCCCc1cccnc1	-3.1%
26	c1ccc(C(c2ccccc2)N2CCN(Cc3nc(-c4cnccn4)no3)CC2)cc1	-6.0%
27	CCc1noc(C)c1C(=O)OCC(=O)Nc1ccc2c(c1)OCO2	-21.2%
28	CCCSc1nc(O)c(C(c2ccc(OC)c(O)c2)c2c(O)nc(SCCC)n(C)c2=O)c(=O)n1C	35.5µM*
29	COc1ccc(C(CNC(=O)c2cc(S(=O)(=O)N3CCCC3)ccc2Cl)N2CCCC2)cc1 (stereo not given)	-4.6%
30	O=C(Nc1ccc(Cl)cc1)N1CCCN(Cc2ccccc2F)C1	-4.4%
31	O=C(NCCS(=O)(=O)NC1CCCC1)c1ccccc1	2.0%
32	CCn1cc(C(=O)OCC(=O)Nc2ccccc2OC(F)F)c(=O)c2ccc(C)nc21	-6.2%
33	Cc1c(NC(=S)N/N=C/c2ccc([N+](=O)[O-])cc2O)c(=O)n(-c2ccccc2)n1C	-5.4%
34	Cn1c(SCC(=O)CC(=O)Nc2ccccc2)nnc1-c1ccc(O)cc1	-5.6%
35	COc1cccc(C(=O)NNC(=O)C(=O)Nc2ccc(OC)cc2OC)c1	7.0%
36	CCOC(=O)c1c(C)[nH]c(C(=O)OCC(=O)Nc2sc(C(=O)N(C)C)c(C)c2C(=O)OCC)c1C	4.5%
37	CSc1oc(-c2ccc(F)cc2)nc1S(=O)(=O)c1ccccc1	27.7%
38	c1ccc(Nc2c(-c3ccccc3)nc3ncccn23)cc1	-14.4%
39	Cc1cc(C(=O)NCc2cccs2)ccc1[N+](=O)[O-]	-10.1%
40	Cc1ccc2nc(C)c(C)nc2c1N	10.3%
41	CC(C)C(NC(=O)c1ccccc1)C(=O)OCc1cc([N+](=O)[O-])cc2c1OCOC2 (stereo not given)	-13.1%
42	O=C(CSc1cn(CC(=O)N2CCCC2)c2ccccc12)Nc1ccc(Cl)cc1	6.6%
43	COc1cc(/C=C/c2ccc(O)cc2)cc(OC)c1	-0.1%
44	O=C1c2ccccc2C(=O)N1CCCc1nc(-c2ccc(Cl)cc2)no1	-27.3%
45	COC(=O)c1ccc(NC(=S)NC(=O)c2cc(-c3ccccc3)nc3ccccc23)cc1	-8.2%
46	N#Cc1cccc(NC(=O)N2CC[C@@]3(CCCN(C(=O)c4csnn4)C3)C2)c1	-0.3%
47	CCCCC(=O)Nc1ccc2nc(SCC(=O)N3CCc4ccccc43)sc2c1	7.4%
48	O=C(NCc1cccnc1)C(=O)NCC(c1ccco1)N1CCN(c2ccccc2F)CC1 (stereo not given)	4.5%
49	CCOC(=O)c1[nH]c2ccccc2c1NC(C)=O	-0.5%
50	O=C(CSC1=NCCS1)N1CCN(c2ccccc2)CC1	8.7%
51	CCOC(=O)C1CCN(Cc2c(O)c3ccccc3oc2=O)CC1	-9.7%
52	Cc1ccc(-c2nnn(CC(=O)N(CC(=O)NC3CCCCC3)c3cccc(F)c3)n2)o1	-17.8%
53	CC1CCCC(NC(=O)Cn2cc(C(F)(F)F)cc(Cl)c2=O)C1C (stereo not given)	5.8%
54	O=Cc1cc2ccccc2nc1SCc1ccc(Cl)c(Cl)c1	0.9%
55	CCOc1ccc(C(=O)NCC(=O)N2CCN(c3ccc(C(F)(F)F)cn3)CC2)cc1	10.0%
56	O=C(O)c1ccc(-n2cccc2/C=C2/SC(=O)N(CC(=O)N3CCCC3)C2=O)cc1	8.3%
57	O=C(O)c1ccc(N/N=C/c2ccc3nccnc3c2)cc1	-9.6%
58	CN(C)c1nc(NCc2ccccc2)nc(N/N=C/c2ccc(Br)cc2)n1	-4.2%
59	COc1ccc(-c2cc(C(=O)Nc3ccc4c(c3)OCO4)no2)cc1	-5.8%&-10.0%
60	COc1nnc(-c2ccc(C)c(S(N)(=O)=O)c2)c2ccccc12	-14.1%

# Next section:
no.	smiles	VDR inhibitor
61	CCN=C1S/C(=C\c2cc(Cl)c(OC)c(OC)c2)C(=O)N1CC	-10.9%
62	COc1ccc(CNc2ncncc2-c2ccc3c(c2)OCO3)c(OC)c1	?
63	COc1cc(/C=C(/C#N)C(=O)Nc2ccc(C)cc2)ccc1Oc1nc(Cl)ncc1F	-10.0%
64	COc1ccc(-n2nc3c(N4CCC(C(=O)NCc5cccc(C)c5)CC4)nnc(C)c3c2C)cc1	-1.3%
65	CCOc1ccccc1C(c1c(C)n(C)n(-c2ccccc2)c1=O)c1c(C)n(C)n(-c2ccccc2)c1=O	-7.9%
66	CCN(CC(=O)Nc1ccc(NC(C)=O)cc1)C(=O)COc1ccccc1Cc1ccccc1	12.0%
67	Cc1ccc(S(=O)(=O)NC2=NCN(CC(=O)O)CN2)cc1	-6.4%
68	CC(C)(O[C@@H]1O[C@H](CO)[C@@H](O)[C@H](O)[C@H]1O)[C@@H]1CC=C(C(=O)O)CC1	0.0%
69	O=C(COC(=O)c1cnccn1)c1ccc(Br)cc1	-0.5%
70	COc1ccc(-c2nn(C)c(=O)c3ccccc23)cc1CNC(=O)C1CCCCC1	4.5%
71	Brc1ccc(CSc2nnc3ccccn23)cc1	7.6%
72	O=C(CCS(=O)(=O)c1ccccc1)OCC(=O)N1CCN(S(=O)(=O)c2ccc(Cl)cc2)CC1	-2.8%
73	CCn1nnc(-c2ccccc2NC(=O)c2cc(OC)c(OC)c(OC)c2)n1	-4.5%
74	CCOc1ccc2cc(S(=O)(=O)N3CCOCC3)ccc2c1	-3.5%
75	COc1ccc(OC)c(C2C(C(C)=O)=C(O)C(=O)N2c2ccc(F)cc2)c1 (stereo not given)	-4.5%
76	CN(Cc1ccco1)c1ncncc1-c1ccoc1	?
77	Cc1nnc(NCCO)c2ccccc12	-7.5%
78	O=S(=O)(c1cccc(-c2csc(-c3cccnc3)n2)c1)N1CCCCC1	11.7%
79	CS(=O)(=O)N(Cc1ccc(C(=O)Nc2ccccc2Sc2ccccc2)cc1)c1ccccc1	-8.0%
80	COc1ccc(NC(=O)CC2C(=O)N(c3ccc(F)cc3)C(=O)N2CCc2sccc2C)cc1 (stereo not given)	6.4%
81	CCOC(=O)C1C2C=CC3(CN(Cc4ccco4)C(=O)C13)O2 (stereo not given)	-8.2%
82	Cc1ccc(C(=O)N/C(=C/c2ccc(N(C)C)cc2)C(=O)NCC2CCCO2)cc1 (stereo not given)	-13.3%
83	C[C@@H]1C(=O)O[C@@H]2CC34[C@H]5C[C@@H](C(C)(C)C)C36[C@H](OC(=O)[C@@H]6O)OC4(C(=O)O5)[C@@]12O (stereo not given in full)	-13.9%
84	Cc1ccccc1NC(=O)Cn1c(=O)n(Cc2ccco2)c(=O)c2cccnc21	-13.7%
85	Cc1ccc(C(=O)NCCCN2CCOCC2)o1	1.2%
86	Cc1nccn1S(=O)(=O)c1cc([N+](=O)[O-])ccc1Cl	10.2%
87	O=c1nccc(SCc2ccc(Cl)cc2Cl)[nH]1	4.2%
88	CC(=O)Nc1ccc(S(=O)(=O)Nc2nccs2)cc1	-11.5%
89	COc1ccc(OCC(=O)Nc2ccc(NC(=O)c3cccs3)cc2)cc1	?
90	O=C1Nc2ccccc2/C1=C\c1cccn1-c1ccc(OC(F)(F)F)cc1	2.7%
91	OC(COc1ccc(OCC(O)CN2CCCCC2)cc1)CN1CCCCC1 (stereo not given)	-15.8%
92	CC(C)(C)C(=O)NC(=O)Nc1ccccc1C(F)(F)F	-11.2%
93	Cc1cnc(CNc2ncnc3ccc(-c4ccc(N(C)C)cc4)cc23)cn1	?
94	CCCCN(Cc1ccccc1)S(=O)(=O)c1cc(Br)cc2c1N(C(C)=O)CC2	-10.0%
95	Cc1cccc(C)c1OCC(=O)Nc1c(C(=O)c2ccc(Br)cc2)oc2ccccc12	0.5%
96	C[C@H](CO)N1C[C@H](C)[C@@H](CN(C)S(=O)(=O)c2ccccc2)Oc2c(NC(=O)NC3CCCCC3)cccc2C1=O	-9.8%
97	O=C(NCCN1C(=O)S/C(=C\c2ccc(Cl)cc2Cl)C1=O)C1=COCCO1	?
98	Cc1cc2c(n1-c1ccc(C(=O)NCCc3ccccc3)cc1)CCC(C)C2 (stereo not given)	-10.3%
99	CC(C)C[C@H]1CNC(=S)N1CC1CCCN1C[C@H](CC(C)C)N1C[C@H](Cc2ccccc2)N(CC2CCCCCC2)C1=S (stereo not given in full)	14.3%
100	CC(O)(C#CCN1CCCC1)c1ccccc1 (stereo not given)	9.2%
101	Cc1cc2cc(CNC(=S)Nc3ccc(OC(F)F)cc3)ccc2[nH]1	-7.5%
102	COc1ccc(NC(=O)O/N=C2/CCCc3ccc(OC)cc32)cc1	44.7µM*
103	COC(=O)NC1CSCC1OC(=O)c1ccc(Br)cc1 (stereo not given)	4.3%
104	COc1ccc(NC(=O)c2cc(-c3ccco3)on2)cc1OC	-1.7%
105	C=CCNC(=O)c1c(C(F)(F)F)nn(C)c1Cl	4.0%
106	CC1CCN(S(=O)(=O)c2ccc3c(c2)NC(=O)CS3)CC1	-6.9%
107	CCN(CC)S(=O)(=O)c1ccc(C(=O)NCCCN=C2NS(=O)(=O)c3ccccc32)cc1	-2.7%
108	O=C(O)c1ccccc1Sc1ncnc2sccc12	-9.0%
109	COc1ccc(C)cc1S(=O)(=O)n1cnc2ccccc21	-2.9%
110	COc1ccc(C(=O)N/C(=C\c2cn(C)c3ccccc23)C(=O)NCCCn2ccnc2)cc1OC	21.5%
111	Cc1cccc(C)c1NCc1nnc(SCC(=O)Nc2nc(-c3ccccc3)cs2)n1-c1ccccc1	-14.5%
112	Cc1cc(-c2ccccc2)nc(N(C)C)c1S(C)(=O)=O	3.6%
113	CCN(CC)CCCN=C(N)N	-3.0%
114	O=C(Nc1ccc2c(c1)OCCO2)c1ccc(Cl)c(S(=O)(=O)N2CCOCC2)c1	-8.7%
115	CN(C)c1ccc(NC(=O)CSc2nc3ccccc3c(=O)n2CC2CCCO2)cc1 (stereo not given)	-7.9%
116	O=C(Nc1cccc(C(F)(F)F)c1)C1=CC=CN2CCS(=O)(=O)N=C12	-11.3%
117	COCCNC(=O)CSc1nc2cc(OC)c(OC)cc2c(=O)n1CCc1ccc(S(N)(=O)=O)cc1	-16.1%
118	COC(=O)C1=C(C(=O)c2ccccc2)C(c2cccs2)n2nnnc2N1 (stereo not given)	-4.2%
119	CSc1cc(CS(=O)(=O)c2ccccc2)nc(-c2ccccc2)n1	4.2%
120	COC(=O)Cc1c(C)c2ccc(O)c(CNCc3ccc(OC)c(OC)c3)c2oc1=O	-3.3%

# Following part.
no.	smiles	VDR inhibitor
121	NC(=O)c1c(NC(=O)c2c(F)cccc2F)sc2c1CCN(Cc1ccccc1)C2	-17.5%
122	COCCNC(=O)c1ccc2c(c1)S(=O)(=O)c1cc(Cl)ccc1C2=O	-9.1%
123	COc1ccccc1CN1C[C@@H]2C[C@@H](c3cccc(O)c3)N3CCC[C@@]23C1=O	43.0%[activator]
124	Cc1nc(C(=O)NNC(=O)Nc2ccccc2)cs1	-9.9%
125	O=C(COC(=O)c1ccc[nH]c1=O)Nc1cc(S(=O)(=O)N2CCCCC2)ccc1Cl	-13.1%
126	COc1ccc(NC(=O)CSc2ncn[nH]2)c([N+](=O)[O-])c1	-35.4%
